Source: PubChem BioAssay
Sfp inh – inhibitors of Bacillus subtilis Sfp phosphopantetheinyl transferase; AID 1490; hit rate 3.5% among 310,000; Potency, µM, for inactives: max response, negative = inhibition, actives largely listed as inhibitors; Biochemical Sfp PPTase activity, qHTS; active means well fitted inhibition curve with a large enough effect; inconclusive means small, poorly fitted or top-dose-only effect, or another doubt; inactive means no such curve, though single readings can be large or run the other way;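 further: the enzyme is Sfp with the accession as filed and its product quenches rhodamine fluorescence; potency means the concentration at half of the fitted maximal effect; 0% = enzyme reaction without inhibitor and -100% = no enzyme wells; top concentration of the series not given in the record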
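Reaction rates are the 30-min fluorescence difference (ex 525, em 598 nm) in wells containing 15 nM Sfp, 5 uM rhodamine-CoA and 12.5 uM BHQ-2-YbbR at pH 7.6 with 10 mM MgCl2.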
CtBP-E1A inh – inhibitors of CtBP/E1A interaction; AlphaScreen GST-E1A/His-CtBP binding, 1536-well; active compounds read low; control for the full effect not named in the record; hit rate 0.49% among 340,000; activity change, % (concentration not given with the values); AID 651724; in the data active means activity change below about -65%; inconclusive means about -30% to -65%; inactive means above about -30%; further: on the % scale 0 is the no-effect control and ±100 the full control effect
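AlphaScreen with 125 nM GST-E1A and 125 nM His-CtBP (5X stocks) in Tris pH 8.0, 300 mM NaCl, BSA, Tween 20, TCEP. Compounds preincubated 2 h at 37 deg C, then glutathione donor/nickel acceptor beads added for 1 h at 37 deg C in dark.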
TRPV1 potentiator – human TRPV1 potentiation; Q8NER1; TRPV1-expressing cells, Fluo-8 calcium influx, capsaicin EC20 potentiation; host cell line not named in the record; control for the full effect not named in the record; potentiation, % at 8.33 µM; hit rate 0.02% among 320,000; AID 540277; active means potentiation above 80%; inconclusive means 30% to 80%; inactive means below 30%; further: 0% is about no effect
Target sequence (Q8NER1 whole entry, looked up): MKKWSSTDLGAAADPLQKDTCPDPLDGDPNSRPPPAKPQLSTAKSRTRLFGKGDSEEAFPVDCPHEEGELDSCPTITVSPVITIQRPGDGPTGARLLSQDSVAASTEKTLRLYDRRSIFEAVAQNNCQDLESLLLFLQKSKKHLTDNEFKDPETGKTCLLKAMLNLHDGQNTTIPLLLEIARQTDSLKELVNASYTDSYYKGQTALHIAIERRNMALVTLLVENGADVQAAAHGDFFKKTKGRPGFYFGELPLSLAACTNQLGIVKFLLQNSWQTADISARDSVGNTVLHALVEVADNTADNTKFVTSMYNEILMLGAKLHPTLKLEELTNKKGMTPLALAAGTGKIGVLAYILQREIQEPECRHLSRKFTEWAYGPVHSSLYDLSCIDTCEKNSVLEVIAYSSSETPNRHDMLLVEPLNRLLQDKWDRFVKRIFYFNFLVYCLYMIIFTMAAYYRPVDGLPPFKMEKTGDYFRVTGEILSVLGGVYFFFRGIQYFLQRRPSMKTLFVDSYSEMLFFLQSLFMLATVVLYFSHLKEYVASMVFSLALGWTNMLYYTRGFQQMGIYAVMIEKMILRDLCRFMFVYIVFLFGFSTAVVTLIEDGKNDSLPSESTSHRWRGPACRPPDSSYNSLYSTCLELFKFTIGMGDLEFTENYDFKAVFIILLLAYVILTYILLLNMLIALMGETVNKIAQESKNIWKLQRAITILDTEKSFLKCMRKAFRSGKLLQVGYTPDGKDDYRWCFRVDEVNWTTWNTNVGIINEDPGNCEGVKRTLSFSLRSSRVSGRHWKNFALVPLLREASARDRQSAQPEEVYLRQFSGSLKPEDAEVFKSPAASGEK
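Fluo-8 calcium influx in TRPV1-expressing cells, kinetic read (ex 480/em 520 nm). Compound added and read 3 min for agonist activity, followed by capsaicin at EC20 final and 2 min further read for enhancement.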
gsp antagonist – gsp mutant antagonism. hit rate 0.4% among 340,000. Potency, µM (series often up to 76.9 µM), for the others: top-dose activity change, negative = inhibition, actives largely listed as inhibitors. gsp-mutant cells, cAMP HTRF, 30 min; control for the full effect not named in the record. AID 624288; active = falling curve of any shape with a large fitted effect; inconclusive = falling curve, mostly with a smaller effect; inactive = flat or rising curve; cell line not stated here;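 further: intracellular cAMP measured with PDE inhibitor Ro 20-1724 present during compound exposure; potency means the concentration at half of the fitted maximal effect; on the % scale 0 is the no-effect control and ±100 the full control effect; nearly all actives have a fitted effect of over 65% in size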
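Measurement of cellular cAMP by homogeneous time-resolved fluorescence following a 30 min compound exposure at 37C. The PDE inhibitor […] was present throughout; the assay buffer was DPBS with 0.05% BSA and 0.005% Tween 20.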
gsp agonist – activates gsp, the McCune-Albright syndrome mutation; gsp mutant cells, cAMP HTRF, 30 min; control for the full effect not named in the record; Potency, µM (doses to about 76.9 µM), for the others: at the top dose activation (cAMP increase), usual class: activators; hit rate 0.13% among 340,000; AID 624287; active = well fitted activation curve with a large enough effect; inconclusive = small, poorly fitted or top-dose-only effect, or another doubt; inactive = no such curve, though single readings can be large or run the other way; cell line not stated here;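 further: phosphodiesterase inhibitor Ro 20-1724 added with compounds to block cAMP breakdown; potency means the concentration at half of the fitted maximal effect; nearly all actives have a fitted effect of over 60% in size; about a fifth of the inactives were tested at one dose only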
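Cells stably selected in G418 were plated at 2000/well, grown 16-24 hr, then given compounds in DMSO with the PDE inhibitor […] (300 uM solution added) for 30 min at 37C; cAMP was read by HTRF.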
ClpP mod – qHTS Assay for Activators of ClpP | hit rate 1.9% among 340,000 | purified B. subtilis ClpP, FRET peptide cleavage, 20 min | ATP-dependent Clp protease proteolytic subunit (Bacillus subtilis (strain 168)), P80244 | Potency, µM (highest dose often 57.5 µM), inactives show at the highest dose activity change, negative = active | AID 651965, 2013; active = well fitted falling curve with a large enough effect; inconclusive = small, poorly fitted or top-dose-only effect; inactive = no such curve, though single readings can be large or run the other way; further: potency means the concentration at half of the fitted maximal effect; the source files actives as falling curves though it sought activators and does not explain the sign; nearly all actives have a fitted effect of over 65% in size; many hits overshoot -100%
Target sequence (P80244 whole entry, looked up): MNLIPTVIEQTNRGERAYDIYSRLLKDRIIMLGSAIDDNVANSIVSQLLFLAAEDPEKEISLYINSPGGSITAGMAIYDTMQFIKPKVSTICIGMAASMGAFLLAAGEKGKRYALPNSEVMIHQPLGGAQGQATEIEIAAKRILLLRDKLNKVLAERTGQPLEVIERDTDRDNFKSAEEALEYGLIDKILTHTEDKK
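Buffer: 100 mM Tris/HCl pH8, 100 mM KCl, 0.05% low protease BSA, 2.5% glycerol, 0.01% Tween-20. ClpP 10 microg/mL final; 20 min RT; delta FRET normalized to ADEP and DMSO controls.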
Menin-MLL FL inh – inhibitors of human menin-MLL interaction, wild-type MLL peptide. Fluorescence polarization, fluorescein-MLL peptide displacement from menin. FP activity change, % at 61.4 µM. 290,000 tested, under 10 active; inconclusive = falling polarisation curve, or a change in total fluorescence; inactive = total fluorescence flat and polarisation flat or rising; no compound was filed as active; the % refers to the polarisation; negative = inhibition;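 further: % of control where 0% means no effect; inhibitors lower the polarisation; unlabelled MLL peptide was the positive control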
Starred values were filed as active, the others as inactive; ? = inconclusive; / = no result given; & = joins results of further samples; [ ] = another dose, or the depositor's remark.

| structure | Sfp inh | CtBP-E1A inh | TRPV1 potentiator | gsp antagonist | gsp agonist | ClpP mod | Menin-MLL FL inh |
| --- | --- | --- | --- | --- | --- | --- | --- |
| CCCCn1c(NC(C)=O)c(C#N)c2nc3ccccc3nc21 | -6% | -18 | 9 | -12% | ? | 28µM* | ? |
| CCCCSc1nc(C)[nH]c1[N+](=O)[O-] | 14% | 3 | 4 | 5% | -35%[inhibitor] | 0.6% | 4.2 |
| CCOC(=O)c1c(C)nc2sc3c(=O)n(-c4ccc(C)cc4)cnc3c2c1-c1ccc(OC)cc1 | -4% | 5 | 4 | 14% | ? | -1.5% | -1.7 |
| Cc1ccc(N2C(=O)N(c3ccc(C)cc3)C3CS(=O)(=O)CC32)cc1 (stereo not drawn) | -2% | 9 | 4 | 3% | -38%[inhibitor] | / | -0.2 |
| CCOC(=O)c1c(NC(=O)CSc2ncnc3ccccc23)sc(C(C)=O)c1C | -14% | 5 | 3 | -6% | -8%[15.4 µM] | / | 3.9 |
| O=C(N=C1SC2CS(=O)(=O)CC2N1c1ccc(F)c(Cl)c1)C1CCCO1 (stereo not drawn) | 13% | 4 | 5 | 6% | -137%[inhibitor] | -1.0% | / |
| Cc1[nH]c(=O)[nH]c(=O)c1S(=O)(=O)N1CCCC(C(=O)NCCC2=CCCCC2)C1 (stereo not drawn) | 23% | -1 | 0 | 5% | 11% | / | 2.2 |
| Cc1cccc(NC(=O)CN2CCN(C(=O)c3cncn3-c3ccc(F)cc3)CC2)c1C | / | -2 | -10 | -7% | -42%[inhibitor] | -1.0% | / |
| CCC(=O)c1ccc(OCC(O)CN2CCc3ccccc3C2)cc1 (stereo not drawn) | 4% | / | 2 | 0% | -14% | 1.9% | -1.9 |
| O=P(c1ccccc1)(c1ccccc1)C1CCCO1 (stereo not drawn) | 4% | -23 | 0 | 11% | -2% | -5.3% | 5.2 |
| C=C(C)CC(NCCc1ccccc1)c1ccco1 (stereo not drawn) | 18% | -23 | 4 | 7% | -30%[15.4 µM] | / | 0.6 |
| COc1cccc(-c2csc(N3CCN(C(=S)Nc4ccccc4)CC3)n2)c1 | 1% | 5 | 10 | -3% | 33% | 0.6% | 4.7 |
| Cc1c2cnn(CC(=O)O)c(=O)c2c(C)n1Cc1ccccc1 | 25% | 2 | 6 | -5% | -75%[inhibitor] | -29% | -0.8 |
| CC(=O)Oc1cccc(C2=CC(=O)CC(C)(C)C2=O)c1 | / | 4 | / | / | -13% | 0.3% | / |
| COC(=O)[C@@]12CCCCN1[C@H](c1ccc(-c3ccc(OC)cc3)cc1)[C@H]1C(=O)N(C)C(=O)[C@H]12 | / | 7 | -37 | 0% | / | -8.3% | / |
| O=C(Oc1ccccc1)c1ccccc1C(=O)Oc1ccccc1 | / | 34 | / | -10% | / | 0.5% | / |
| COc1ccc(N(CC(=O)Nc2ccc(Cl)cc2)S(=O)(=O)c2c(C)n[nH]c2C)cc1 | 13% | 12 | -35 | -28% | -6% | 2.1% | -0.1 |
| CC/C(=N\NC(=O)C(N)=O)c1ccccc1O | 7% | ? | 16 | 3% | -34%[inhibitor] | -9.3% | 22 |
| Cc1c(/N=C/c2ccco2)n(Cc2ccccc2)c2ccccc12 | -18% | ? | / | -1% | -1% | 16% | 0.9 |
| Cc1ccc(-c2cc(C(=O)N3CCOCC3)c3ccccc3n2)cc1 | 2% | 0 | 11 | 5% | -1% | ? | -1.1 |
| CN(Cc1ccccc1)C(=O)CN(c1ccc(F)cc1)S(=O)(=O)c1ccc2c(c1)OCCO2 | 2% | 0 | -9 | -16% | ? | -0.6% | -0.6 |
| Cc1ccc(C)c(NC(=O)CSc2nnc(CCCCCNC(=O)OC(C)(C)C)o2)c1 | 15% | 4 | 7 | -18% | 4% | 1.2% | 1.3 |
| CCCC(=O)NCCCc1nc2ccccc2n1C(C)C | 8% | 2 | -4 | -9% | -9% | -0.3% | 0.6 |
| O=C(Nc1ccccc1Cl)N1CCN(c2ccc3nnc(-c4ccccc4)n3n2)CC1 | 6% | -14 | ? | -24% | ? | -3.1% | 2.8 |

In the list so far, these contain a Cl atom:
| structure | Sfp inh | CtBP-E1A inh | TRPV1 potentiator | gsp antagonist | gsp agonist | ClpP mod | Menin-MLL FL inh |
| --- | --- | --- | --- | --- | --- | --- | --- |
| O=C(N=C1SC2CS(=O)(=O)CC2N1c1ccc(F)c(Cl)c1)C1CCCO1 (stereo not drawn) | 13% | 4 | 5 | 6% | -137%[inhibitor] | -1.0% | / |
| COc1ccc(N(CC(=O)Nc2ccc(Cl)cc2)S(=O)(=O)c2c(C)n[nH]c2C)cc1 | 13% | 12 | -35 | -28% | -6% | 2.1% | -0.1 |
| O=C(Nc1ccccc1Cl)N1CCN(c2ccc3nnc(-c4ccccc4)n3n2)CC1 | 6% | -14 | ? | -24% | ? | -3.1% | 2.8 |

Next part:
| structure | Sfp inh | CtBP-E1A inh | TRPV1 potentiator | gsp antagonist | gsp agonist | ClpP mod | Menin-MLL FL inh |
| --- | --- | --- | --- | --- | --- | --- | --- |
| Cc1ccc(CN2C(=O)CCC2C(=O)N2CCN(c3ccc(F)cc3)CC2)cc1 (stereo not drawn) | 8% | -2 | -6 | 1% | -29% | 0.4% | 2.1 |
| COc1ccc(NC(=O)Cn2nnc(C(=O)Nc3ccc(F)c(Cl)c3)c2N)cc1OC | -8% | / | -7 | 1% | 0% | -11%&-6.5% | -1.4 |
| O=C(NCc1nnc(SCc2ccc(F)cc2)n1-c1ccccc1)C12CC3CC(CC(C3)C1)C2 | -2% | 0 | 3 | -17% | 12% | -0.6% | -0.3 |
| CCc1ccccc1N(C(=O)c1snc(C(N)=O)c1N)C(C(=O)NCC1CCCO1)c1ccc(N(C)C)cc1 (stereo not drawn) | 10% | -11 | 25 | / | -16%[15.4 µM] | / | 1.2 |
| CCN(c1ccccc1)S(=O)(=O)c1cc(C(=O)Nc2ccc(Br)cc2)ccc1F | 19% | 2 | -10 | -15% | 0% | ? | 3.9 |
| O=C(c1ccco1)N1CCN(C(=O)c2ccccc2[N+](=O)[O-])CC1 | 10% | -22 | -4 | -4% | 5% | / | -4.1 |
| C=CCNC(=O)/C(C#N)=C\c1cc(Cl)c(O)c(OCC)c1 | 1% | 7 | -1 | ? | -11% | -6.5% | ? |
| COc1ccc(Cl)cc1NC(=O)CN1C(=O)CSC1=O | 23% | 5 | -15 | -6% | -3% | 0.9% | 3.6 |
| CCCC(C)C(=O)Nc1cc([N+](=O)[O-])ccc1F (stereo not drawn) | 12% | 2 | -8 | 5% | 3% | -3.8% | 1.5 |
| CCOc1ccc(/C=N/NC(=O)c2ccccc2C)cc1CN1CC2CC(C1)c1cccc(=O)n1C2 (stereo not drawn) | / | -4 | 8 | ? | / | -1.6% | / |
| Cc1c(C(=O)OCC(=O)NCc2ccco2)cccc1[N+](=O)[O-] | / | 4 | -7 | 6% | -59%[inhibitor] | 1.2% | / |
| Cc1cc(/C=C2/NC(=O)NC2=O)c(C)n1C | -19% | -2 | 2 | -15% | -5%[15.4 µM] | / | -17 |

Additional results:
Each structure is followed by: Sfp inh	CtBP-E1A inh	TRPV1 potentiator	gsp antagonist	gsp agonist	ClpP mod	Menin-MLL FL inh
> Cn1ccc(/C=N/N=C2/NC(=O)CS2)n1
    ?	2	15	4%	9%[15.4 µM]	/	2.1
> Cc1ccc(C)c(Cc2c(C)nc3c(C(=O)NCc4ccc5c(c4)OCO5)cnn3c2C)c1
    ?	/	-14	/	/	/	11
> O=C(CCNC(=O)OCc1ccccc1)NC1CCCCC1
    10%	0	6	-6%	3%	0.6%	4.2
> CC(=O)N(C)c1ccc(N=NC2C(=O)N(C(N)=S)N=C2C)cc1 (stereo not drawn)
    -58%	/	8	-29%	-40%[inhibitor]	3.7%	-0.8
> Cc1ccc2c(Cl)c(C)c(N3CCCCC3)nc2n1
    -4%	12	-14	7%	-4%[15.4 µM]	-4.2%	3.7
> C/C(=N\NC(=O)c1ccc2c(c1)OCCO2)c1ccccc1
    8%	-18	-12	5%	14%[15.4 µM]	/	1.1
> O=C1NC(c2ccccc2O)Nc2ccccc21 (stereo not drawn)
    6%	/	-22	3%	3%	3.7%	0.0
> Cc1ccccc1OC(=O)CCC(=O)OCCCC(F)(F)C(F)(F)F
    ?	7	-17	-5%	28%	-0.6%	-1.8
> Cc1ccc(C(C)NC(=S)NC2CCCCC2)c(C)c1 (stereo not drawn)
    4%	-4	-7	-14%	?	-0.3%	-4.5
> Cc1ccc(S(=O)(=O)N(C)C)cc1NC(=S)NC12CC3CC(CC(C3)C1)C2
    13%	13	-5	?	?	0.0%	0.0
> O=C(NCc1ccccc1)C(c1ccccc1)N(Cc1ccc2c(c1)OCO2)C(=O)Cc1cccs1 (stereo not drawn)
    16%	0	?	-12%	3%	-1.7%	-1.0
> C[C@H](NC(=O)Nc1cccc(C(F)(F)F)c1)C(=O)O
    3%	13	-9	-4%	1%	-1.9%	-1.4
> OC(COC(c1ccccc1)c1ccccc1)CN1CCN(c2cccc(Cl)c2)CC1 (stereo not drawn)
    10%	-12	-7	-17%	?	-1.8%	-1.4
> COc1ccccc1CCc1nnc(CCC(=O)NCCC2CCCCO2)o1 (stereo not drawn)
    /	1	/	/	-56%	0.6%	/
> CCOC(=O)N1CCN(C(=O)CSc2nnc(COc3ccccc3)o2)CC1
    15%	7	-4	-5%	-10%	2.4%	2.5
> COc1ccc(C(CC(=O)N2CCOCC2)c2c(OC)cc(OC)c3c(-c4ccccc4)cc(=O)oc23)cc1 (stereo not drawn)
    -14%&-18%	-3	3	-1%	/	-2.5%	11&-0.7
> CC1CCN(S(=O)(=O)c2ccc(C(=O)NCc3ccco3)cc2)CC1
    6%	9	12	6%	-5%[15.4 µM]	/	-2.6
> COc1ccc(NC2c3ccccc3C(=O)N2Cc2ccco2)cc1OC (stereo not drawn)
    -2%	-6	1	-3%	-4%	0.1%	-1.9
> CCOC(=O)c1c(/N=C/C2C(=O)CC(C)(C)CC2=O)sc2c1CCCC2
    3%	-1	-12	2%	?	/	-5.2
> CCCCCNc1nc2ccccc2nc1NS(=O)(=O)c1cccs1
    18%	0	7	-4%	-4%	-15%	4.4
> CCOc1ccccc1-c1cc(-c2ccccc2)nc2c1c(=O)n(C)c(=O)n2C
    -3%	4	-8	12%	-48%[inhibitor]	32µM*	3.2
